RE007 growth inh: less growth of the S. pombe RE007 Vpr strain; S. pombe RE007 Vpr strain, BacTiter-Glo ATP luminescence, 24 h; control for the full effect not named in the record; Potency, µM (top dose mostly 92.2 µM), without a hit: at the highest dose activity change, negative = less growth; 360,000 compounds, 0.21% hits; AID 651644; active = well fitted falling curve with a large enough effect; inconclusive = small, poorly fitted or top-dose-only effect; inactive = no such curve, though single readings can be large or run the other way;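 further: on the % scale 0 is the no-effect control and ±100 the full control effect; nearly all actives have a fitted effect of over 50% in size; the assay follows cell death caused by Vpr and the record does not say whether a fall means rescue or toxicity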
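Fission yeast strain RE007, carrying one chromosomally integrated HIV-1 vpr copy, was seeded at OD 0.01 in PMG+AL medium with 23 nL pinned compound. After 24 h at 30 °C and 99% humidity, viability was read by BacTiter-Glo luminescence.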
StopGo reporter: lowers the luciferase signal of an FMDV 2A StopGo reporter; AID 1159524; Potency, µM (highest dose often 57.9 µM), inactives show at the top dose signal change, negative = less light; 410,000 compounds, 1.2% hits; human cells with a luciferase reporter of 2A StopGo recoding; control for the full effect not named in the record; active = well fitted falling curve with a large enough effect; inconclusive = small, poorly fitted or top-dose-only effect; inactive = no such curve, though single readings can be large or run the other way; tested in HEK293T cells; further: on the % scale 0 is the no-effect control and ±100 the full control effect; nearly all actives have a fitted effect of over 45% in size; luciferase light after 4 h
SARS PLP yeast: blocks SARS-CoV papain-like protease in a yeast assay; Potency, µM (titrated, usually from 32.9 µM), inactives show at the highest dose activity, positive = growth rescue; S. cerevisiae expressing SARS-CoV PLpro, growth rescue; control for the full effect not named in the record; 330,000 compounds, 0.19% hits; active means well fitted rising curve with a large enough effect; inconclusive means small, poorly fitted or top-dose-only effect; inactive means no such curve, though single readings can be large or run the other way; further: 0% is about no effect; nearly all actives have a fitted effect of over 55% in size; growth read by luminescence after 48 h
Numbers without * were called inactive; ? = inconclusive; [ ] = dose if it differs, or a comment. Potency means the concentration at half of the fitted maximal effect. Some of the compounds tested; count on the stated rates, not on these rows.

SMILES	RE007 growth inh	StopGo reporter	SARS PLP yeast
CCOc1ccc(NC(=O)CN(C)C(=O)c2ccc(C3SCCS3)cc2)cc1OCC	7%	-4%	-7%
CCOCC(=O)Nc1cc(C)on1	20%	-4%	2%
Cc1cc(N(C)C(=O)c2ccc3c(c2)S(=O)(=O)c2cc(Cl)ccc2C3=O)c(C(F)(F)F)o1	3%	-22%	4%
COCc1[nH][nH]c(=O)c1C=NCC(=O)OC	5%	5%	2%
CCCn1c(SCC(=O)N2CCc3ccccc3C2)nc(O)cc1=O	9%	-19%	-2%
CC(C)(C)[C@@H]1COC(=O)[C@H](Cc2ccc(F)cc2)C/C=C\C[C@@H](CC(=O)NCCO)C(=O)N1	10%	-22%	-30%
O=C(COc1ccccc1)NNC(=O)c1ccc(Cl)cc1	-1%	-10%	-1%
O=C(O)COc1ccc(/C=C2\SC(=Nc3ccccc3)N(c3ccccc3)C2=O)cc1	2%	-4%	0%
O=C(CNC(=O)c1ccc2c(c1)OCO2)Nc1cccc(Br)c1	2%	26%	3%
O=C(COc1ccccc1F)NCC(c1ccc(F)cc1)N1CCOCC1 (stereo not drawn)	-11%	-9%	0%
C[C@H](CO)N1C[C@H](C)[C@@H](CN(C)Cc2ccc(Cl)c(Cl)c2)Oc2c(NC(=O)C3CCOCC3)cccc2C1=O	2%	17%	-3%
Cc1ccc(S(=O)(=O)N2CCN(C(=O)n3ccnc3)CC2)cc1	-4%	-11%	1%
COc1ccccc1C(=O)NC(CCSC)C(=O)N1CCN(C(C)=O)CC1 (stereo not drawn)	-16%	-2%	8%
Cc1ccccc1C(=O)NC(CC(C)C)C(=O)Nc1ccc(S(N)(=O)=O)cc1 (stereo not drawn)	-7%	-8%	1%
O=c1c2cc(F)ccc2sn1-c1ccc(F)cc1	11µM*	-8%	-3%
COc1ccc(C2=NOC(Cn3nc(-c4ccccc4)cc3C(=O)NCc3cccc(Br)c3)C2)cc1 (stereo not drawn)	-11%	17%	0%
COCCn1c(N)c(C(=O)c2cccc(S(=O)(=O)N3CCCCCC3)c2)c(=O)[nH]c1=O	11%	?	2%
CCCN(CC(=O)Nc1ccc(C(N)=O)cc1)CC(=O)Nc1ccccc1C	0%	-10%	-1%
CCOC(=O)C1=CN(Cc2ccco2)S(=O)(=O)N(CC)C1c1ccc(F)c(Cl)c1 (stereo not drawn)	-12%	-16%	-4%
CC1CCN(S(=O)(=O)c2cc([N+](=O)[O-])ccc2Cl)CC1	-11%	-19%	-2%
Cc1cc(NC(=O)COC(=O)C2CC2)ccc1Br	0%	21%	-6%
COCCNC(=O)/C(C#N)=C/c1ccc(C(=O)O)cc1	12%	-8%	-3%
O=C(/C=C/c1ccccc1Cl)Nc1cccc(O)c1	-18%	-13%	2%
CN(CC(=O)Nc1cc(Cl)ccc1Cl)C1CCS(=O)(=O)C1 (stereo not drawn)	-13%	-17%	3%
Cc1ccnc(NS(=O)(=O)c2ccc(NC(=O)CSc3nc(-c4ccccc4)cc(=O)[nH]3)cc2)n1	2%	6%	2%
SMILES	RE007 growth inh	StopGo reporter	SARS PLP yeast
CCn1c(C)cc(C(=O)CSc2nnc(-c3ccco3)o2)c1C	5%	29%	1%
CC(C)(C)OC(=O)C[C@@H]1C/C=C\C[C@H](CC(=O)N(CCO)Cc2ccccc2)C(=O)N[C@@H](Cc2ccccc2)COC1=O	7%	-16%	2%
COc1cc2cnc(CCCC#N)cc2cc1OC	-2%	1%	-2%
COc1ccc2nc(N(CCN(C)C)C(=O)/C=C/c3cccs3)sc2c1	8%	?	0%
COc1ccc(NC(=O)c2ccc(S(=O)(=O)N3CC(C)OC(C)C3)cc2)cc1 (stereo not drawn)	8%	?	-1%
COC(=O)c1ccc(CN=C(NS(=O)(=O)c2ccccc2)c2ccccc2)cc1	6%	24%	-1%
CCCC(=O)Nc1nc(-c2ccc(Cl)s2)cs1	-12%	9%	-4%
C[C@H](NC(=O)c1nc[nH]c1C(=O)N[C@@H](CCCCN)C(=O)OC(C)(C)C)C(=O)OCc1ccccc1	5%	0%	7%
CC(C)CCN(C(=O)c1cc(=O)[nH]c2ccccc12)c1c(N)n(Cc2ccccc2)c(=O)[nH]c1=O	8%	-10%	1%
O=C(CN1C(=O)CCC1=O)Nc1cccc2c1C(=O)NC2=O	3%	0%	1%
COc1ccc(-c2noc(CCC(=O)NCCCN3CCN(c4ccc(F)cc4)CC3)n2)cc1	-9%	?	0%
Cc1cccc(S(=O)(=O)Nc2ccc(S(=O)(=O)Nc3nccs3)cc2)c1	-9%	63%[activator]	2%
CC1SC(c2ccccc2)N(CC(O)c2ccc([N+](=O)[O-])cc2)C1=O (stereo not drawn)	-14%	-8%	0%
O=[N+]([O-])c1ccc(CSc2ccc(S(=O)(=O)N3CCCCC3)cn2)cc1	-3%	?	-3%
CCN(CC)C(=O)c1ccc(C(=O)Nc2ccc(F)cc2)cc1	7%	41%[activator]	0%
CCCNC(=O)N1[C@H]2CC[C@@H]1C(C(=O)OC)=C(c1ccc(F)cc1F)C2	-10%	-3%	-1%
Cc1ccc(S(=O)(=O)N2[C@@H](c3ccc(C#N)cc3)C(C(=O)O)=C[C@H]2CC2CCCC2)cc1	0%	-23%	0%
CCN(C[C@H]1N[C@@](C)(C(=O)OC)[C@H]2C(=O)N(Cc3ccccc3)C(=O)[C@@H]12)S(=O)(=O)c1ccc(OC)cc1	-1%[18.4 µM]	-19%	5%
O=C(CSc1nc(-c2cccs2)nc2ccccc12)NC1CCS(=O)(=O)C1 (stereo not drawn)	-5%	0%	4%
Cc1cc(C)cc(S(=O)(=O)Cc2noc(C(=O)NCc3ccccc3)c2C(=O)NCc2ccccc2)c1	2%	-20%	-10%
Cc1ccccc1C(=O)/C=C1/SCC(=O)N1C	?	-16%	-2%
Nc1cc(C(F)(F)F)cc([N+](=O)[O-])c1N	-21%	-12%	3%
CCC(=O)Nc1ccc(C(=O)COC(=O)Cc2ccsc2)cc1	6%	-4%	0%
NC(=O)c1ccsc1NC(=O)COC(=O)COc1ccccc1[N+](=O)[O-]	0%	-18%	-5%
CN(c1ccccc1)S(=O)(=O)c1cccc(NC(=O)COc2ccccc2)c1	14%	-8%	-6%

Nothing new here: entries from further up.
SMILES	RE007 growth inh	StopGo reporter	SARS PLP yeast
CCn1c(C)cc(C(=O)CSc2nnc(-c3ccco3)o2)c1C	5%	29%	1%
CC(C)(C)OC(=O)C[C@@H]1C/C=C\C[C@H](CC(=O)N(CCO)Cc2ccccc2)C(=O)N[C@@H](Cc2ccccc2)COC1=O	7%	-16%	2%
COc1cc2cnc(CCCC#N)cc2cc1OC	-2%	1%	-2%
COc1ccc2nc(N(CCN(C)C)C(=O)/C=C/c3cccs3)sc2c1	8%	?	0%

Next part:
SMILES	RE007 growth inh	StopGo reporter	SARS PLP yeast
CCCCCCn1c(N)c(C#N)c2ccc([N+](=O)[O-])cc2c1=O	-14%	0%	0%
CC(C)(C)OC(=O)C[C@@H]1C/C=C\C[C@@H](CC(=O)NCCO)C(=O)NCCOC1=O	9%	-5%	-1%
C=CCC[C@H](Cc1ccc(F)cc1)C(=O)OC[C@H](C)NC(=O)[C@H](CC=C)CC(=O)N(CCO)Cc1ccccc1	10%	?	9%
Cc1ccc(Cl)cc1NC(=O)COC(=O)CN1C(=O)C2CCCCC2C1=O (stereo not drawn)	1%	-11%	1%
Cc1ccc(C)c(S(=O)(=O)N2CCN(c3nc(-c4cccnc4)nc4ccccc34)CC2)c1	1%	?	6%
COC(=O)[C@]1(C)CCC[C@@]2(C)C3CC[C@]4(OC(C)=O)C[C@@]3(CCC21)CC4=NO (stereo partly drawn)	4%	?	-11%
COc1ccc(-c2c(C#Cc3ccsc3)c3cc(-c4ccc5c(c4)OCO5)ccc3n2C)cc1	4%	-3%	-9%
COc1cc(C(=O)NNC(=O)Cc2cccs2)cc(OC)c1OC	4%	-1%	-3%
CCN(CC)CCN(C(=O)CN1C(=O)CCC1=O)c1nc2cc3c(cc2s1)OCO3	-14%	-6%	-2%
COc1ccccc1OCCNC(=O)CNC(=O)c1ccc(C(C)(C)C)cc1	1%	-18%	-18%
COc1ccc2cc(CO)n(C)c2c1	4%	-5%	-6%
COc1cccc(NC(=O)CN(C)C(=O)CCCc2nc3ccccc3c(=O)[nH]2)c1	-1%	-5%	11%
CCOc1ccc(NS(=O)(=O)c2ccc(Cl)c(C(=O)N(C)Cc3cccnc3)c2)cc1	-6%	15%	-1%
O=C(Cc1c[nH]c2ccccc12)NCC(=O)Nc1ccc(F)c(F)c1F	-11%	-4%	3%
O=C(CSc1nnc(-c2ccco2)o1)NCCc1ccccc1	33%	-3%	8%
O=C(COC(=O)c1ccncc1)Nc1cccc2ccccc12	-5%	-3%	2%
CCC1=NN2C(=N)/C(=C\c3cccn3-c3ccc(C)cc3C)C(=O)N=C2S1	-6%	-2%	-23%
Cc1cc(C(=O)O[C@H]2[C@H](C)NS(=O)(=O)[C@H]3C[C@@H]4C=C[C@]23O4)cc([N+](=O)[O-])c1	13%	-4%	7%
Cc1ccc(Nc2nnc(SCC(=O)NCC3CCCO3)s2)cc1 (stereo not drawn)	-11%	-8%	0%
CCOC(=O)C1=CN(Cc2cccc(F)c2)S(=O)(=O)N(CC)C1c1ccc2ccccc2c1 (stereo not drawn)	4%	-16%	-2%
CCC1CCc2sc(C(=O)NCC3CCCO3)cc2C1 (stereo not drawn)	?	21%	-5%
C[C@]12c3[nH]c4ccc(Cl)cc4c3CCN1C(=O)[C@@H](CC(=O)NCCCn1ccnc1)C[C@@H]2C(=O)N1CCOCC1	-17%	0%	-10%
CC1(C)CC(=O)C=C(c2ccc3ncccc3c2)C1	-5%	17%	3%
COc1ccc(-c2sc(Nc3ccccc3)n[n+]2-c2ccccc2)cc1Br	17%	-25%	3%
COc1ccc(OC)c2sc(N(CCN(C)C)C(=O)c3cc(Cl)sc3Cl)nc12	1%	-20%	-3%

A second format for some results above:
Fields: RE007 growth inh | StopGo reporter | SARS PLP yeast
COc1ccc(OC)c2sc(N(CCN(C)C)C(=O)c3cc(Cl)sc3Cl)nc12
  1% | -20% | -3%
C=CCC[C@H](Cc1ccc(F)cc1)C(=O)OC[C@H](C)NC(=O)[C@H](CC=C)CC(=O)N(CCO)Cc1ccccc1
  10% | ? | 9%

(cont.)
SMILES	RE007 growth inh	StopGo reporter	SARS PLP yeast
Cc1ccn2nc(C(=O)OCC(=O)N(CC(C)C)C3CCS(=O)(=O)C3)nc2n1 (stereo not drawn)	-17%	-17%	1%
CC(=O)[C@@]1(O)CCC2C3C=CC4=CC(=O)CC[C@]4(C)C3CC[C@@]21C (stereo partly drawn)	-10%	-21%	0%
CN(C(=O)COC(=O)C1COc2ccccc2O1)C1(C#N)CCCCC1 (stereo not drawn)	1%	-11%	6%
O=C(COc1ccccc1F)Nc1cc(S(=O)(=O)Nc2cccc(Cl)c2)ccc1O	6%	52%[activator]	-2%
O=C1NC[C@@H](Cc2cccc3ccccc23)N(CCC23CC4CC(CC(C4)C2)C3)C1=O	4%	2%	-9%
CC(=O)c1ccc(S(=O)(=O)N2CCN(CCOc3ccccc3)CC2)cc1	-11%	-22%	-6%
COc1cc(/C=C2\SC(=S)N(CC(=O)Nc3ccc(O)cc3)C2=O)cc(OC)c1OC	17%	-6%	2%
CC[C@@]1(C(=O)OC)N[C@H](CN(C)C(=O)NC(C)C)[C@@H]2C(=O)N(Cc3ccccc3)C(=O)[C@@H]21	2%[18.4 µM]	0%	-5%
CC(C)NC(=O)CSc1nc(-c2ccccc2)cs1	20%	40%[activator]	-2%
CCC(C)c1ccc(NC(=O)COC(=O)CCNS(=O)(=O)c2cccs2)cc1 (stereo not drawn)	-13%	40%[activator]	1%
COc1ccc(CCNC(=O)CSc2ccsc2[N+](=O)[O-])cc1OC	10%	-25%	4%
CC1CC(C)CN(C(=O)COC(=O)c2ccc(S(=O)(=O)N(C)c3ccccc3)cc2)C1 (stereo not drawn)	0%	-12%	-1%
CC(=O)c1ccc(S(=O)(=O)N2CCN(c3nc(-c4cccnc4)nc4ccccc34)CC2)cc1	8%	0%	-5%
O=C1C2C3C=CC(C2C(=O)N1c1ccccc1O)C1C2C(=O)N(c4ccccc4O)C(=O)C2C31 (stereo not drawn)	6%	7%	12%
CC(=O)c1c(C)[nH]c(C(=O)OCC(=O)NCCCc2ccccc2)c1C	-1%	-28%	2%
O=C(COC(=O)c1ccc([N+](=O)[O-])s1)NNC(=O)c1ccccc1	2%	-1%	1%
O=C(Cc1cccc(NC(=O)C2CCN(C(=O)c3ccccc3)CC2)c1)Nc1cccc(C(=O)N2CCCC2)c1	4%	3%	-4%
CC(=O)N1CCN(C(=O)c2ccc(S(=O)(=O)Nc3ccccc3F)cc2)CC1	-7%	-26%	0%
COc1cc(-n2c(=O)c3ccccc3n(CC(=O)c3ccccc3)c2=O)cc(OC)c1OC	17%	-25%	0%
